# Compound activity (PubChem BioAssay)
# PrP UTR inh = inhibition of PrP 5' UTR reporter expression | cell-based PrP 5' UTR mRNA reporter, plate reader | inhibition, % (no concentration beside the values) | 340,000 compounds, 0.35% hits | AID 488862;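 active means every replicate at 50% or more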;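 further: 0 = median of the neutral control wells; tested in H4 reporter cells; numbers are from one replicate; inactives centre near -14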
# Mtb hypoxia rep = inhibitors of hypoxia-regulated fluorescent reporter in Mycobacterium tuberculosis; M. tuberculosis hypoxia-regulated fluorescent reporter, fluorescence; fluorescence inhibition, % (no concentration beside the values); 300,000 compounds, 0.1% hits;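 active means 35 to 45% if threefold the growth effect, above 45% if 1.5-fold the growth effect; inactive means the rest, general growth blockers included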;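 further: wells of about 50 µL received 100 nL stock; 0% = vehicle wells and 100% = reference inhibitor wells; whole bacteria with a GFP reporter of the hypoxia response; strong numbers were not always called active; many hits fall short of the cut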
# BJeLR lethal = kills HRASV12-expressing BJeLR cells; BJeLR (HRASV12) viability, CellTiter-Glo ATP luminescence, 48 h; reference of the scale not given here; inhibition, % (concentration not given with the values); 300,000 compounds, 0.17% hits;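 active means replicate mean above 50%; inconclusive means above 50% but judged a plate artefact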;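 further: 50 nL library stock added to about 25 µL; numbers are from one replicate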
# Sa RN4220 lethal = S. aureus RN4220 growth inhibition; OD600, 16 h; inhibition, % (no concentration beside the values); 330,000 compounds, 0.33% hits;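 active means z-score of -3 or lower and OD600 up to 0.18 on both plates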;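 further: plate controls were untreated cells for no effect and reference antibiotic for full effect; stock transfer was 100 nL into about 80 µL; one replicate is shown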
# Autofluor counter = flagged as autofluorescent in microsphere protease counterscreen; fluorescence intensity (test concentration not listed); compound autofluorescence counterscreen, microsphere flow cytometry; stronger effect = higher value; 360,000 compounds, 3.1% hits;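 active means at least 3 SD above the mean of all compounds, about 16000 in these data; inconclusive means too few beads counted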;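 further: 100 nL of 1 mM stock went into each well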
# Sa ugtP lethal = growth inhibition of S. aureus ugtP deletion strain; S. aureus RN4220 ugtP deletion, OD600 growth, 16 h; some inactives read as strong as hits; growth inhibition, % (concentration not given with the values); 330,000 compounds, 0.54% hits; AID 1259309;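 active means z-score under -3 and OD600 up to 0.15 on both plates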;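 further: plate controls were untreated wells for no effect and antibiotic for full effect; wells of about 80 µL received 100 nL stock; the first replicate is given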
# Mtb hypoxia rep growth = second read-out of Mtb hypoxia rep, no call of its own (marks repeat the call); growth inhibition, %; measured here: M. tuberculosis growth (absorbance);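 0% = vehicle and 100% = reference antibiotic; read after six days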
# An asterisk follows results filed as active; u = inconclusive; x = not tested or not shown; & = joins results of further samples.
SMILES,PrP UTR inh,Mtb hypoxia rep,Mtb hypoxia rep growth,BJeLR lethal,Sa RN4220 lethal,Autofluor counter,Sa ugtP lethal
ON=C1C2C3CC4C5C3C1C5C1(OCCO1)C42 (centres undefined),x,4,7,x,2.8,x,4
O=C(NCc1ccc(Cl)cc1)C1CCC(CNS(=O)(=O)c2ccccc2)CC1 (centres undefined),-10,-4,4,2,1.7,3859,-1
COc1cccc(NC(=O)n2nc(N)cc2-c2ccc(Cl)cc2)c1,-12,6,6,3,-7.4,6166,-19
CC1CCC2(CC1)NC(=O)N(Cc1nc(-c3ccccc3)no1)C2=O (centres undefined),-13,-6,8,0,2.4,5538,-3
Cc1ccc2c(c1)N(CC(=O)N1CCCCCC1)C(=O)CO2,9,-18,-3,-9,-1.9,10339,-6
CCC1=C(OC(=O)N(CC)CC)N2C(=O)OC(=NCC(=O)OC)[C@]2(C)C2C1=CCC1C(=O)N(C)C(=O)C12 (some centres undefined),x,2,1,x,2.1,x,5
CCC(=O)Nn1c(C)nnc1C,-7,x,x,14,1.6,3937,6
Cc1c(NC(=O)C(C)OC(=O)c2cc(Cl)ccc2O)c(=O)n(-c2ccccc2)n1C (centres undefined),-13,0,1,-3,1.3,5583,1
COc1ccc(C(=S)N2CCN(c3cccc(Cl)c3)CC2)c(OC)c1,-62,6,-1,12,8.5,4132,-4
CCOc1ccc(Nc2nc(NCc3ccco3)nc(N)c2[N+](=O)[O-])cc1,8,6,11,-10,2.4,4257,-12
C/C(=C\C(=S)Nc1ccccc1)Nc1ccc2ccccc2c1,-46,-1,1,-7,5.9,2439,-6
COC(=O)NNC(=O)COc1cc(C)ccc1C,-23,5,3,3,4.8,2595,0
O=P(Oc1ccccc1)(Oc1ccccc1)N1CCOCC1,-40,8,12,x,2.9,3474,2
Cc1nn(C(=O)/C(C#N)=C/N(C)C)c(C)c1C,-14,-2,5,9,-2.9,3338,-7
COc1ccc(C2C(C(=O)c3ccco3)=C(O)C(=O)N2CCN2CCOCC2)c(OC)c1 (centres undefined),7,5,-1,-6,5.0,2867,-1
Cc1nc(C)n(C(C)CC(=O)O)n1 (centres undefined),-5,0,-3,-7,8.5,u,13
CC(C)c1ccc(CN2CC(C(=O)O)CC2=O)cc1 (centres undefined),-18,2,3,0,6.9,9958,13
Cc1[nH]c2ccc(F)cc2c(=O)c1SC(F)(F)C(F)F,-6,x,x,0,-4.8,3167,-2
COc1ccc(OC)c(S(=O)(=O)N2CCN(C(=O)c3cc(C4CC4)nn3-c3ccccc3)CC2)c1,-9,3,-2,x,1.8,2811,5
CCCn1c(=O)c(C(=O)NCc2cccnc2)c(O)c2ccccc21,-19,6,1,0,7.4,13089,-11
COc1ccc(C(=O)OCCN2CCOCC2)cc1OC,-15,x,x,x,1.1,5013,0
O=CN1CCN(C(=O)CC(c2ccccc2)c2cc(Br)ccc2O)CC1 (centres undefined),-4,20,7,1,1.0,2888,0
Cc1ccc(NC(=O)CN(C)C(=O)CSc2nc3ccccc3o2)cc1,-18,x,x,-3,1.8,2722,-3
Cc1c(N=NC2=C(O)CCCC2=O)c(=O)n(-c2ccccc2)n1C,-26,14,7,-2,0.5,5227,-7
O=C(NCCO)C(=O)c1c(-c2ccc(Cl)cc2)cc2ccccn12,-21,11,4,-10,5.6,2629,1
CCOC(=O)c1cccc([P+](=O)O)c1,9,0,6,1,0.7,9830,1
CCC1(CC)NC(=O)N(CC(=O)Nc2ccc(OCc3ccccc3)cc2)C1=O,-30,16,13,x,5.1,3417,1
CC(=O)N1N=C(c2cccs2)CC1c1ccco1 (centres undefined),-44,-6,0,-1,4.9,3542,-3
Cc1ccc(/C=C(\C#N)C(=O)N2CCCC2)c(C)c1,-20,-3,0,5,1.4,4420,-13
COc1ccc(-c2cc(C)no2)cc1S(=O)(=O)N1CCOc2ccc(C)cc21,-21,18,7,-12,3.7,6395,9
CCc1ccc(OCC(=O)Nc2ccc(S(=O)(=O)N3CCCC3)cc2)c(Br)c1,-9,5,8,0,-1.9,23390*,0
Cc1nn(-c2ccccc2)nc1C(=O)OCC(=O)N1CCCCC1C (centres undefined),-8,1,-5,x,2.2,x,2
COCCNC(=O)c1c(N)n(-c2ccccc2)c2nc3ccccc3nc12,-31,6,0,0,1.2,5845,11
COc1cccc(N(C(=O)Cn2nnc3ccccc32)C(C(=O)NCc2ccco2)c2cccnc2)c1 (centres undefined),-17,x,x,4,-1.2,5080,-6
COc1ccc(CNC(=O)COC(=O)c2ccccn2)cc1,-16,4,12,4,1.9,4706,0
CCN=C1SC(C(=O)Nc2ccc(Cl)c(Cl)c2)CC(=O)N1CC (centres undefined),-9,6,11,7,0.0,4649,-10
CCOC(=O)C1(CCOc2ccccc2)CCN(Cc2ccccc2O)CC1,-28,x,x,-1,x,3985,x
O=C(/C=C/c1cccc([N+](=O)[O-])c1)Nn1c(-c2ccccc2F)nc2ccccc2c1=O,-5,5,0,-12,3.1,2513,0
COc1ccc(C(=O)Nc2ccc(NC(=O)c3cnccn3)cn2)cc1,-16,2,-1,-11,3.7,5340,-4
COc1cc(/C=N/NC(=O)COc2ccc(C)cc2)ccc1OC(=O)c1cccs1,-7,x,x,-1,x,9039,x
CC(C)(C)Nc1nc(C(N)=O)nc(N2CCOCC2)n1,-8,5,6,1,1.5,24325*,3
CC(=O)c1c(C)[nH]c(C(=O)COc2cc(C)cc(C)c2)c1C,4,2,-2,-4,8.3,21911*,9
COCc1cc(=O)[nH]c2cc(NC(=O)C3CC3)c(C)cc12,-3,5,8,39,4.7,3931,9
Cn1c(N)c(S(=O)(=O)N2CCN(c3ccccc3Cl)CC2)c(=O)n(C)c1=O,-7,4,-1,3,1.7,5128,1
CCc1ccc(OCC(=O)NC(C)(C)C)cc1,-54,-9,10,9,0.9,1977,-1
CCCn1c2ccccc2c2cnn(CC(=O)NCCCN3CCCC(C)C3)c(=O)c21 (centres undefined),0,8,-4,-6,2.3,5916,2
COc1cc(/C=C2\C(=N)N3N=C(S(C)(=O)=O)SC3=NC2=O)cc(OC)c1OCCOc1ccc(C)cc1,-10,-1,13,-3,-0.4,3172,-9
CC(C)(C)CC(=O)Nc1cc2c3c(c1)CC(=O)N3CCC2,3,-6,-2,11,-0.6,5753,1
CCOc1ccc(OCC)c(NC(=O)CN2CCN(c3cccc(C)c3)CC2)c1,1,x,x,-3,9.6,3506,7
O=C(N/N=C/c1ccc(O)cc1)c1[nH]c2ccc(Br)cc2c1-c1ccccc1,39,x,x,8,x,2074,x
COc1cc(CC2(CCc3ccncc3)C(=O)N(C)C(=O)N(C)C2=O)cc(OC)c1OC,-9,0,-1,-2,5.5,4954,2
Cn1c(=O)c2cn(Cc3ccc(Cl)cc3)cc2n(C)c1=O,-12,4,8,-6,4.9,8178,1
COc1ccc2c(c1)c(=O)c(C(=O)O)c(-c1ccc3c(c1)OCO3)n2C,-18,-1,9,1,-1.1,2099,3
O=C(N/N=C(\c1ccccc1)c1cccnc1)c1cccc(F)c1,44,x,x,67*,x,4172,x
CCOC(=O)c1c(C)c(C=NNc2ccccc2)n(C)c1C,x,-1,2,x,-0.3,x,-2
Cc1cc(C(=O)NC(C)C2CCCO2)no1 (centres undefined),-12,13,3,-12,1.6,4661,3
COCCn1c(COc2ccc(Cl)cc2)nnc1SCC(N)=O,10,5,5,-5,2.2,22516*,8
COc1ccc(CNC(=O)CSc2ncnc3nc[nH]c23)cc1,-24,17,8,-6,1.7,3766,-1
Cc1ccc(NC(=O)C2CCC(CNC(=O)[C@@H]3Cc4ccccc4CN3)CC2)c(C)c1 (some centres undefined),-2,4,0,-13,-1.2,4208,-3
c1ccc(CNc2nc(N3CCN(Cc4ccccc4)CC3)nc3ccccc23)cc1,x,8,3,5,12,4953,-19
# Next part
SMILES,PrP UTR inh,Mtb hypoxia rep,Mtb hypoxia rep growth,BJeLR lethal,Sa RN4220 lethal,Autofluor counter,Sa ugtP lethal
O=C(Cn1nnc(N2CCCC2)n1)N/N=C/c1ccc(Cl)cc1,-13,x,x,-11,x,5898,x
CC(=NNC(=O)C1CC1)c1ccc(C(C)(C)C)cc1,x,8,-15,x,1.7,x,15
C/C(=N\Nc1ccc(C)c(Cl)c1)c1cccnc1,-28,x,x,7,x,3690,x
c1ccc2c(c1)nnn2Cc1nnc2sc(-c3ccc4c(c3)OCCO4)nn12,9,-6,4,-8,3.9,8439,-5
Cc1cc(OCCCn2ccnc2)ccc1[N+](=O)[O-],2,-8,11,5,1.4,x,-1
O=S(=O)(c1ccc(Br)cc1)N1CCCc2ccccc21,-28,14,-8,-9,4.4,4068,7
O=C(O)c1cccc(Cn2c(Cl)c(C=NNC(=O)c3ccccc3O)sc2=O)c1,x,16,4,x,2.2,x,6
CCN(CC)S(=O)(=O)c1ccc2c(c1)c(=O)c(C(=O)NCCOC)cn2C,-29,9,12,8,4.8,9362,-3
COc1ccc(CCNC(=O)c2cc(C(=O)c3cc(Cl)ccc3O)cn(CCc3ccc(OC)cc3)c2=O)cc1,-18,5,13,2,2.0,10376,-13
NC(=S)Nc1cnc2ccccc2c1,-11,20,9,-9,2.8,3254,2
O=C1NC(c2ccccc2)COC(=O)C(Cc2ccc(F)cc2)CC=CCC1CC(=O)N(CCO)Cc1ccccc1 (centres undefined),x,11&8&-2&4,8&6&9&9,x,6.1&1.3&-5.1&-3.0,x,12&-13&-16&2
O=C(CCC(=O)N1CCN(S(=O)(=O)c2ccc3ccccc3c2)CC1)Nc1cc(Cl)cc(Cl)c1,-18,6,13,0,-7.4,x,-3
Cc1coc(C)c1C(=O)CC1(O)C(=O)N(CCc2ccccc2)c2ccccc21 (centres undefined),-16,4,10,-8,7.0,15842,-3
CCNc1nc(NC(C)C)nc(NS(=O)(=O)c2ccc(Cl)cc2)n1,-13,-4,6,10,-6.9,22725*,-12
COc1ccc(Cl)cc1C(=O)NNC(=S)NC1CCCCC1,x,12,1,4,3.8,6415,4
c1ccc(CN2CCCC3(CCCN(Cc4nc(COc5ccccc5)no4)C3)C2)cc1 (centres undefined),-14,7,5,-8,2.5,2875,12
CCOC(=O)C1C2COc3ccc(C)cc3C2N2C(=O)C(C)NC(=O)[C@@]12C (some centres undefined),x,5,14,x,5.6,x,0
Cc1ccc(OCC(=O)Nc2ccc3c(c2)C(=O)N(CCC(=O)O)C3=O)cc1,1,9,4,-8,-1.2,6271,3
CC(=O)N1CCN(C(=O)c2ccc3c(c2)S(=O)(=O)c2ccccc2C3=O)CC1,-14,-7,1,5,-3.1,3816,3
COc1ccc(C(C)(C)C)cc1NC(=O)COC(=O)C1=NNC(=O)CC1,-10,-6,0,x,6.1,7890,8
Cc1ccc(C)c(-n2c(SCC(N)=O)nnc2-c2ccccn2)c1,-17,x,x,0,2.3,2788,4
CCOc1cc(C=O)ccc1OCC(N)=O,3,4,3,-1,-0.7,4175,4
Cc1cc(/C=C2\SC(=O)N(C)C2=O)c(C)n1-c1ccc(S(N)(=O)=O)cc1,-5,-1,3,4,1.9,3678,-1
COc1cccc(C2C3(C#N)C(N)=NC(OC)(OC)C23C#N)c1 (centres undefined),-13,x,x,-5,5.6,3132,10

# This is a random part of the collection; overall some 4% were active at least once.
